High-throughput results from PubChem.
PrP UTR inh: inhibition of PrP 5' UTR reporter expression; cell-based PrP 5' UTR mRNA reporter, plate reader; AID 488862, 2010; 0.35% of 340,000 active; inhibition, % (no concentration beside the values);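 active = every replicate at 50% or more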;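 also: 0 = median of the neutral control wells; tested in H4 reporter cells; numbers are from one replicate; inactives centre near -14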
BJeLR lethal: MLPCN primary cell-based screen for lethality selective to Ras in HRASV12 cells | BJeLR (HRASV12) viability, CellTiter-Glo ATP luminescence, 48 h; reference of the scale not given here | 0.17% of 300,000 active | inhibition, % (no concentration beside the values);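 active = replicate mean above 50%; inconclusive = above 50% but judged a plate artefact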;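 also: 50 nL library stock added to about 25 µL; numbers are from one replicate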
Mtb hypoxia inh: PubChem AID 1159583; fluorescence inhibition, % (no concentration beside the values); M. tuberculosis hypoxia-regulated fluorescent reporter, fluorescence; 0.1% of 300,000 active;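 active = 35 to 45% if threefold the growth effect, above 45% if 1.5-fold the growth effect; inactive = the rest, general growth blockers included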;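 also: wells of about 50 µL received 100 nL stock; 0% = vehicle wells and 100% = reference inhibitor wells; whole bacteria with a GFP reporter of the hypoxia response; strong numbers were not always called active; many hits fall short of the cut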
RN4220 kill: growth inhibition of S. aureus RN4220, primary screen, OD600 | 16 h | inhibition, % (no concentration beside the values) | 0.33% of 330,000 active | AID 1259311, 2017;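 active = z-score of -3 or lower and OD600 up to 0.18 on both plates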;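 also: plate controls were untreated cells for no effect and reference antibiotic for full effect; stock transfer was 100 nL into about 80 µL; one replicate is shown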
Sa ugtP lethal: growth inhibition of ugtP-null S. aureus, primary screen, RN4220 ugtP deletion, OD600; growth inhibition, % (test concentration not listed); 16 h; some inactives read as strong as hits; 0.54% of 330,000 active; AID 1259309, 2017;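 active = z-score under -3 and OD600 up to 0.15 on both plates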;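 also: plate controls were untreated wells for no effect and antibiotic for full effect; wells of about 80 µL received 100 nL stock; the first replicate is given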
Bead autofluor: flagged as autofluorescent in microsphere protease counterscreen; fluorescence intensity (concentration not given with the values); 3.1% of 360,000 active; compound autofluorescence counterscreen, microsphere flow cytometry; hits give high values; AID 624483;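 active = at least 3 SD above the mean of all compounds, about 16000 in these data; inconclusive = too few beads counted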;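 also: 100 nL of 1 mM stock went into each well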
Mtb hypoxia inh growth: second read-out of Mtb hypoxia inh, no call of its own (marks repeat the call); growth inhibition, %; measured here: M. tuberculosis growth (absorbance);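 0% = vehicle and 100% = reference antibiotic; read after six days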
* = called active by the depositor; u = inconclusive; x = not tested or not shown; & = joins results of further samples.

Compound,RN4220 kill,Sa ugtP lethal,Mtb hypoxia inh growth,Mtb hypoxia inh,PrP UTR inh,Bead autofluor,BJeLR lethal
COc1ccccc1C1C(C(=O)c2sc(C)nc2C)=C(O)C(=O)N1CCN1CCOCC1 (configuration not stated),1.1,0,x,x,-12,2523,5
CC1CN(C(=S)NC2CCCC2)CC(C)O1 (configuration not stated),1.2,9,-3,11,-3,4709,-1
CSc1cccc(NC(=S)N2CCC(N(C)C3CCCCC3)CC2)c1,-1.1,2,2,-1,-3,3863,2
Cc1ccc(-c2nc(SCC(=O)NCC3CCCO3)c(-c3ccccc3)[nH]2)cc1 (configuration not stated),5.2,-11,3,-4,7,6237,0
CC(=O)c1c(C)[nH]c(C(=O)Nc2cccc(C)n2)c1C,2.5,1,8,12,-32,5913,-2
Cc1ccc(NC(=S)N(CCCN2CCOCC2)Cc2ccco2)cc1,-2.6,4,5,7,-16,4385,0
C[C@@H]1NC(=O)c2cc([N+](=O)[O-])cc(F)c2NCCC[C@@H](C(N)=O)NC(=O)[C@H](CC(N)=O)NC1=O,x,x,x,x,-14,4062,-3
O=C(CN1C(=O)NC2(CCCC2)C1=O)NNC(=O)c1ccc(Br)cc1,x,x,x,x,24,4093,11
COC(=O)c1ccc(NC(=O)CSc2nnc(COc3c(C)cccc3C)o2)cc1,0.9,3,x,x,-12,u,13
CN1C(=O)/C(=C\c2ccc(Br)s2)C(=O)NC1=S,x,x,x,x,-6,4172,2
CC(=O)c1ccc(N2CCN(C(=O)CCS(=O)(=O)c3ccc4c(c3)NC(=O)CS4)CC2)cc1,4.3,12,5,9,-23,5795,1
Cc1cccc(NC(=S)N(CCCN(C)C)Cc2cc3cc4c(cc3[nH]c2=O)OCO4)c1,1.4,7,7,10,-18,3806,0
COc1ccc(C(=O)C=Cc2ccc(O)cc2)c(O)c1CC=C(C)C,27,73,-3,7,x,x,x
CCN(CC)c1ccc(C(=O)NNC(=O)C2CSC3(C)CCC(=O)N23)cc1 (configuration not stated),0.0,-2,-3,-6,-11,4654,x
Cc1nc2ccc(C(=O)N/N=C/c3ccccc3O)cc2[nH]1,x,x,x,x,-14,5438,4
O=C(CSc1nc2ccccc2[nH]1)NC1CCS(=O)(=O)C1 (configuration not stated),2.1,1,6,3,-21,9496,-4
CC(CC(=O)N1CCN(C(=O)c2ccccc2)CC1)c1ccccc1 (configuration not stated),8.7,14,4,16,-8,3425,-3
N#C/C(=C\c1ccncc1)C(N)=O,3.0,4,4,-3,-26,2521,3
CCCCOc1ccc(Cl)cc1CSc1n[nH]c(C)n1,2.4,7,5,7,-18,10757,2
CC(=O)Nc1ccc(NC(=O)C(C)OC(=O)c2ccc(C)s2)cc1 (configuration not stated),4.5,-1,0,-13,-21,5026,-1
Cc1ccc(/C=C(\NC(=O)c2ccccc2)C(=O)NC(Cc2ccccc2)C(=O)O)cc1 (configuration not stated),3.5,4,-12,-10,0,1921,4
COc1ccc(NC(=O)CSc2nc3[nH]ncc3c(=O)[nH]2)cc1OC,-6.1,-5,4,-1,10,u,-3
CCOC1OC(C(=O)N2CCN(Cc3ccc4c(c3)OCO4)CC2)=CC(C)C1CCCO (configuration not stated),2.0&6.4,0&-3,-3&8,-1&4,x,x,x
CCN1CCCC1CNCC(=O)Nc1ccc(OC(F)(F)F)cc1 (configuration not stated),2.2,7,5,15,-18,3658,13
CCC(C)(C)C1CCC(=NNS(=O)(=O)c2ccc(C)c([N+](=O)[O-])c2)CC1 (configuration not stated),0.1,3,9,1,-42,2569,-2
CC(C)(CO)NC(=O)C(c1ccccc1)c1ccccc1,-3.5,8,-3,6,-12,7229,4
c1ccc(Cn2ncc3c(N4CCCCC4)ncnc32)cc1,4.2,10,8,10,-25,2893,1
CCCCC(=O)Nc1nc2c(s1)COc1ccccc1-2,x,x,x,x,-9,4560,14
CC1CCN(c2nc3ccc(C(=O)NCCCN4CCCCC4C)cc3s2)CC1 (configuration not stated),-1.7,4,5,4,-62,6273,13
COc1ccc(CC(=O)OCn2nnc3ccccc3c2=O)cc1OC,2.0,1,-2,9,-42,4672,-9
CCC(C)NC(=O)Cn1c(=O)n(CCCCCC(=O)Nc2ccccc2)c(=O)c2sccc21 (configuration not stated),4.1,4,2,7,-24,6920,1
CNNC(=S)NC1CC2CC1C1C=CCC21 (configuration not stated),2.8,6,19,3,-24,2928,-8
COc1cc(C(=O)Nc2cccc(C)n2)ccc1OCC(=O)N1CCOCC1,-3.0,-5,-6,-4,5,3117,x
COc1ccc(NC(=O)CN2CCN(S(=O)(=O)c3ccc(C(C)C)cc3)CC2)cc1OC,1.8,-4,x,x,-10,2832,-2
Cc1nc2ccccc2c(=O)n1N=Cc1ccc(N(C)C)cc1,3.8,6,15,0,x,x,x
CCCCc1cc(=O)oc2cc(C)cc(O)c12,-8.7,-12,2,11,7,9535,-9
CCN(C(=O)CN1C=NS(=O)(=O)c2ccccc21)c1ccccc1,3.2,0,3,5,-17,7599,-9
O=C(c1ccc(COc2ccccc2Cl)o1)N1CCN(Cc2ccc3c(c2)OCO3)CC1,8.1&5.8,-12&-23,0,5,-24&15,2287&2032,0&-5
CC(NC(=O)c1cc(COc2ccccc2)on1)c1nccs1 (configuration not stated),1.9,-2,0,-2,-51,6071,-3
COc1cccc(C(=O)Nc2ccncc2)c1OC,1.6,6,10,10,-1,x,1
Cc1ncc(CSCC(=O)Nc2cc(C(F)(F)F)ccc2Cl)c(CO)c1O,5.8,7,3,2,9,3029,5
O=C(Nc1ccccc1C(F)(F)F)c1cc(S(=O)(=O)N2CCC3(CC2)OCCO3)ccc1F,0.7,4,3,-1,-12,23758*,-15
CCOC(=O)[C@@H]1[C@H]2COc3ccc(Br)cc3[C@H]2N2C(=O)N(c3cccc(F)c3)C(=O)[C@]12C,x,x,x,x,-16,3478,-12
Cc1nn(-c2ccccc2)c(Cl)c1C(=O)NCCN(C)C,2.7,-10,-1,5,-19,3199,-5
COc1ccc(NC(=O)CSCC(=O)NCc2ccco2)cc1,2.5,5,-4,13,-20,5297,8
Clc1ccc(CSc2nccn2Cc2ccccc2)cc1,-3.0,18,14,8,-25,7980,-2
Cc1cccc(S(=O)(=O)c2c(N)n(-c3ccccc3)c3nc4ccccc4nc23)c1,4.5,-1,-1,3,-11,2342,-6
Cc1c(Cl)c(C(F)(F)F)nn1CC(=O)NCc1ccco1,5.3,8,3,2,-18,5006,-4
COc1ccc(O)c(/C=N/NC(=S)Nc2cccc(S(=O)(=O)N(C)C)c2)c1,x,x,x,x,16,9905,6
COc1ccc(C(C(=O)NC2CCCCC2)N(Cc2ccco2)C(=O)c2snc(C(N)=O)c2N)cc1 (configuration not stated),-5.0,5,4,-6,-5,4435,12
COc1ccc(S(=O)(=O)N2CCCCC2)cc1NCC(=O)Nc1ccc(C)cc1,3.7,6,5,12,x,4396,10
CCN(CC)C(=O)[C@H]1CC(CC(=O)NCc2ccco2)C(=O)N2CCc3c([nH]c4ccccc34)[C@]12C (some centres not stated),0.2,5,-2,3,-16,3084,x
Cc1ccc(-c2c(C(=O)NN=Cc3cccc(Cl)c3)nnn2-c2nonc2N)cc1,85,37,-2,-12,x,x,x
C=CCC[C@@H](Cc1ccc(F)cc1)C(=O)OC[C@H](Cc1c[nH]c2ccccc12)NC(=O)[C@H](CC=C)CC(=O)N(CCO)Cc1ccccc1,-4.6,-11,-1,2,-20,3813,x
COc1ccc(C(=O)C2CCCN(C(=O)c3cccc(N4CCCC4=O)c3)C2)cc1OC (configuration not stated),4.0,11,3,15,-5,5315,1
CC(=O)c1cccc(-n2nnnc2SCC(=O)Nc2cccc(NC(=O)c3ccco3)c2)c1,2.1,5,x,x,1,4781,21
O=C(COC(=O)CNC(=O)C1CCCCC1)Nc1ccccc1OC(F)F,4.4,6,4,4,-21,8667,x
COc1ccc(NCc2nnc(SCC#N)n2-c2ccccc2OC)cc1,5.1,-12,-8,-84,-18,9211,5
CS(=O)(=O)c1ccc2nc(NC(=O)CN3C(=O)C4CC=CCC4C3=O)sc2c1 (configuration not stated),1.5,6,5,15,-34,4331,x
COC(=O)NC(=C(Cl)Cl)P(=O)(c1ccccc1)c1ccccc1,1.5,7,5,6,3,5787,5

Single records, as listed above. Screens in order: RN4220 kill | Sa ugtP lethal | Mtb hypoxia inh growth | Mtb hypoxia inh | PrP UTR inh | Bead autofluor | BJeLR lethal
Entry for Clc1ccc(CSc2nccn2Cc2ccccc2)cc1 → -3.0 | 18 | 14 | 8 | -25 | 7980 | -2
Entry for CS(=O)(=O)c1ccc2nc(NC(=O)CN3C(=O)C4CC=CCC4C3=O)sc2c1 (configuration not stated) → 1.5 | 6 | 5 | 15 | -34 | 4331 | x
Entry for COc1ccc(O)c(/C=N/NC(=S)Nc2cccc(S(=O)(=O)N(C)C)c2)c1 → x | x | x | x | 16 | 9905 | 6
Entry for CC(=O)c1cccc(-n2nnnc2SCC(=O)Nc2cccc(NC(=O)c3ccco3)c2)c1 → 2.1 | 5 | x | x | 1 | 4781 | 21

The results go on:
Compound,RN4220 kill,Sa ugtP lethal,Mtb hypoxia inh growth,Mtb hypoxia inh,PrP UTR inh,Bead autofluor,BJeLR lethal
CC(C)(NS(=O)(=O)OCC(Cl)(Cl)Cl)c1ccccc1,3.3,0,4,11,-15,3901,0
O=C(Nc1ccc2c(c1)OCO2)C(c1ccccc1)N1CCN(C(=O)c2ccco2)CC1 (configuration not stated),-1.8,1,x,x,-30,4477,-1
Cc1ccccc1N(C(=O)Cn1nnc(-c2cccs2)n1)C(C(=O)NCCC(C)C)c1ccco1 (configuration not stated),-2.6,5,2,7,3,3291,-1
O=c1c(C=NCCN2CCNCC2)c(O)n(C2CCCCC2)c(=O)n1C1CCCCC1,-4.2,-1,7,-1,-11,11033,1
CC(=O)Nc1ccc(NC(=O)CCn2nnc3ccccc32)cc1,3.2,-2,2,-4,-39,3697,-6
CC(=NNC(=O)c1ccc2c(c1)OCO2)c1ccc(NC(=O)c2ccc(F)cc2)cc1,0.7,-5,0,-1,x,x,x
CCO[C@H]1OC(C(=O)NCc2ccccc2)=C[C@@H](c2ccc3c(c2)OCO3)[C@@H]1CCCO,x,x,x,x,-3,3799,-9
O=C(Nc1ccccc1C(=O)Nc1ccc(Br)cn1)c1cccc([N+](=O)[O-])c1,8.0,2,8,3,-10,3838,-2
CCC(=O)Nc1ccc(C(=O)NN=Cc2ccccc2[N+](=O)[O-])cc1,1.9,-1,1,2,x,x,x
Cc1cc(C)n(CC(O)COc2ccc3ccccc3c2)n1 (configuration not stated),-1.3,4,6,-1,-46,4691,-6
COC(=O)c1ccc(OCCn2cnc3ccccc3c2=O)cc1,6.2,5,11,14,-55,19676*,1
